BJeLR lethal – MLPCN primary cell-based screen for lethality selective to Ras in HRASV12 cells. BJeLR (HRASV12) viability, CellTiter-Glo ATP luminescence, 48 h; reference of the scale not given here. inhibition, % (no concentration beside the values). 300,000 compounds, 0.17% hits. AID 1554, 2009;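 active = replicate mean above 50%; inconclusive = above 50% but judged a plate artefact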;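 also: 50 nL library stock added to about 25 µL; numbers are from one replicate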
Mtb hypoxia rep – PubChem AID 1159583 | M. tuberculosis hypoxia-regulated fluorescent reporter, fluorescence | fluorescence inhibition, % (test concentration not listed) | 300,000 compounds, 0.1% hits;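 active = 35 to 45% if threefold the growth effect, above 45% if 1.5-fold the growth effect; inactive = the rest, general growth blockers included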;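 also: wells of about 50 µL received 100 nL stock; 0% = vehicle wells and 100% = reference inhibitor wells; whole bacteria with a GFP reporter of the hypoxia response; strong numbers were not always called active; many hits fall short of the cut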
RN4220 kill – growth inhibition of S. aureus RN4220, primary screen, OD600; 16 h; inhibition, % (test concentration not listed); 330,000 compounds, 0.33% hits;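 active = z-score of -3 or lower and OD600 up to 0.18 on both plates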;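 also: plate controls were untreated cells for no effect and reference antibiotic for full effect; stock transfer was 100 nL into about 80 µL; one replicate is shown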
PrP 5UTR inh – inhibition of PrP 5' UTR reporter expression; cell-based PrP 5' UTR mRNA reporter, plate reader; inhibition, % (concentration not given with the values); 340,000 compounds, 0.35% hits;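 active = every replicate at 50% or more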;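 also: 0 = median of the neutral control wells; tested in H4 reporter cells; numbers are from one replicate; inactives centre near -14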
Bead autofluor – counter-screen for toxin protease inhibitors: compound fluorescence. compound autofluorescence counterscreen, microsphere flow cytometry; hits give high values. fluorescence intensity (concentration not given with the values). 360,000 compounds, 3.1% hits;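 active = at least 3 SD above the mean of all compounds, about 16000 in these data; inconclusive = too few beads counted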;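 also: 100 nL of 1 mM stock went into each well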
ugtP null kill – growth inhibition of ugtP-null S. aureus, primary screen, RN4220 ugtP deletion, OD600; 16 h; some inactives read as strong as hits; growth inhibition, % (no concentration beside the values); AID 1259309, 2017; 330,000 compounds, 0.54% hits;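 active = z-score under -3 and OD600 up to 0.15 on both plates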;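 also: plate controls were untreated wells for no effect and antibiotic for full effect; wells of about 80 µL received 100 nL stock; the first replicate is given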
Mtb hypoxia rep growth – further read-out of Mtb hypoxia rep, marked with its call; growth inhibition, %; measured here: M. tuberculosis growth (absorbance);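 0% = vehicle and 100% = reference antibiotic; read after six days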
* marks the source's active call; other numbers are inactive results; ? = inconclusive; . = not tested or not shown.

The line under a structure holds: BJeLR lethal	Mtb hypoxia rep	Mtb hypoxia rep growth	RN4220 kill	PrP 5UTR inh	Bead autofluor	ugtP null kill
CC(C)(C)c1ccc(OCC(=O)N2CCN(c3ncccn3)CC2)cc1
 : 1.0	14.7	-1.0	9.2	-3.7	.	16.2
CCCn1c(C)cc(C(=O)Cn2nnc3ccccc3c2=O)c1C
 : -1.9	5.4	10.8	14.1	-61.5	3847	4.0
CCCCC(CC)CNC(=O)CC1Nc2c3ccccc3nc(=S)n2C1=O (stereo unspecified)
 : -3.2	-3.2	3.4	14.5	-12.0	4098	5.2
Cc1ccc(Cn2nc(C)c(C=O)c2Cl)cc1
 : -8.0	-3.0	8.1	1.9	-3.5	4947	2.0
O=C(Nc1ccc(N2CCCCC2)c(Cl)c1)c1ncn[nH]1
 : 2.9	4.6	12.1	1.0	6.1	3744	14.2
COc1ccc(C=NNc2nccnc2Cl)c(OC)c1
 : .	3.8	1.7	0.0	.	.	-6.5
CCN(c1ccccc1)S(=O)(=O)c1ccc(OC)c(NC(=O)C2CC2)c1
 : .	-5.2	-8.7	4.1	-11.7	2936	4.8
COc1cccc(SCC2(O)CCN(C(=O)c3ccc(Cl)cc3)CC2)c1
 : -1.6	9.4	6.3	0.5	-10.0	3533	-1.2
CCN(CC)CCNC(=O)c1ccc(NS(=O)(=O)c2ccc3c(c2)OCCO3)cc1
 : -3.0	-6.3	5.0	7.3	-13.4	4426	22.1
CC(C)N(Cc1nnc(-c2ccc(Cl)cc2)o1)C(=O)c1cc2ccccc2o1
 : .	8.6	-0.4	11.6	-16.0	3594	5.3
NC(Cc1nc2ccccc2[nH]1)c1ccc(Cl)cc1 (stereo unspecified)
 : -2.3	7.6	7.0	-2.2	-105.5	.	-1.5
O=C(CSc1nnc(CNC(=O)c2cccc(C(F)(F)F)c2)o1)NCc1ccco1
 : -7.0	5.5	6.8	-4.4	-19.8	5489	1.0
CS(=O)(=O)c1ccc(SCC(=O)NC2CCS(=O)(=O)C2)c([N+](=O)[O-])c1 (stereo unspecified)
 : 7.9	4.6	1.8	2.5	-16.3	4425	9.7
Cc1ccc(-n2c(C)cc(/C=C3\C(=O)NC(=O)N(C)C3=O)c2C)cc1C
 : 8.1	12.7	4.0	1.9	-17.4	2514	1.5
COc1cc(OC)cc(C(=O)N2CCN(C(=O)c3cccc(F)c3)CC2)c1
 : -2.6	15.6	13.5	2.9	-15.3	2399	14.1

Continued, overlapping the part above by 3 compounds.
The line under a structure holds: BJeLR lethal	Mtb hypoxia rep	Mtb hypoxia rep growth	RN4220 kill	PrP 5UTR inh	Bead autofluor	ugtP null kill
CS(=O)(=O)c1ccc(SCC(=O)NC2CCS(=O)(=O)C2)c([N+](=O)[O-])c1 (stereo unspecified)
 : 7.9	4.6	1.8	2.5	-16.3	4425	9.7
Cc1ccc(-n2c(C)cc(/C=C3\C(=O)NC(=O)N(C)C3=O)c2C)cc1C
 : 8.1	12.7	4.0	1.9	-17.4	2514	1.5
COc1cc(OC)cc(C(=O)N2CCN(C(=O)c3cccc(F)c3)CC2)c1
 : -2.6	15.6	13.5	2.9	-15.3	2399	14.1
NC(=O)c1cccc(NC(=O)CCCCC(=O)Nc2cccc(C(N)=O)c2)c1
 : 8.4	3.5	1.1	-0.5	-8.5	3467	2.0
Cc1ccc(OCC(=O)N2CCN(S(=O)(=O)c3ccccc3)CC2)c([N+](=O)[O-])n1
 : -10.8	-12.7	5.4	-1.3	7.8	2276	2.9
COc1ccc(CCNC(=O)/C=C\c2ccccc2)cc1OC
 : 2.2	1.9	-7.0	2.9	-18.4	2522	8.4
COC(=O)c1cc(-c2ccc(OC)cc2)on1
 : 10.3	-1.4	-8.2	8.6	-10.6	4413	5.8
CC(=O)N1C(=O)/C(=C2\SC(=S)N(c3c(C)n(C)n(-c4ccccc4)c3=O)C2=O)c2ccccc21
 : 6.4	8.2	2.0	3.2	-21.2	2031	3.4
CCCCN(N=Nc1nonc1OC)c1nonc1OC
 : -7.9	7.5	6.7	4.9	4.8	3392	19.3
Cc1c(OCC(=O)N2C[C@H]3C[C@@H](C2)c2cccc(=O)n2C3)ccc2c3c(c(=O)oc12)CCC3
 : 1.0	.	.	3.5	-13.5	4020	7.4
CCOc1ccccc1N(C(=O)CNS(=O)(=O)c1ccccc1)C(CC)C(=O)NCc1ccco1 (stereo unspecified)
 : 1.2	-13.3	2.7	-0.2	-42.6	10644	-11.1
O=C(CN1C(=O)NC2(CCCC2)C1=O)OCCOc1ccc(Br)cc1
 : -2.7	9.3	10.8	3.0	-14.7	6261	4.9
CC(=O)c1cccc(N(C(=O)c2cnccn2)C(C(=O)NCc2ccccc2)c2ccco2)c1 (stereo unspecified)
 : -10.0	-4.8	-4.9	-1.0	-4.6	3383	9.0
Cc1ccc(NC(=O)NNC(=O)COc2ccc([N+](=O)[O-])cc2)cc1C
 : -9.6	1.6	7.8	1.5	1.5	?	4.2
CCc1c(O)nc(SCC(=O)Nc2ccc3c(c2)CCC3)[nH]c1=O
 : 5.2	.	.	4.4	-19.9	2471	-0.8
COc1ccc(C(=O)Nc2nc3cc(OC)c(OC)cc3c(=O)[nH]2)cc1
 : .	9.7	5.7	6.7	-33.0	25582*	-9.8
O=C(OCc1ccc(Cl)cc1)c1cnccn1
 : 14.9	.	.	3.2	-19.0	4060	1.0
CCOC(=O)C1CCCN(C(=O)c2ccc3[nH]c4c(c3c2)CC(C)CC4)C1 (stereo unspecified)
 : .	10.6	-1.7	2.3	-6.6	8373	-2.4

Additional results follow.
The line under a structure holds: BJeLR lethal	Mtb hypoxia rep	Mtb hypoxia rep growth	RN4220 kill	PrP 5UTR inh	Bead autofluor	ugtP null kill
CCn1nc(C(=O)Nc2cc(Cl)ccc2-n2cncn2)c2ccccc2c1=O
 : -4.5	0.8	4.4	3.8	-2.2	5199	-3.3
O=C(c1cccnc1)N1CCCc2ccccc21
 : -3.9	6.5	7.9	4.0	-3.9	20718*	-6.9
O=C(c1ccc(-n2cncn2)c([N+](=O)[O-])c1)N1CCN(S(=O)(=O)c2ccc(F)c(F)c2)CC1
 : 1.2	.	.	.	6.6	6927	.
Cc1cc(NCC(c2ccccc2)c2ccccc2)n2ncnc2n1
 : -2.9	3.7	16.0	-3.6	-37.8	4054	14.2
O=C(Nc1ccc2c(c1)OCO2)C1CC1
 : .	14.4	7.2	6.2	-24.6	3593	3.1
C/C(=C\C1CCCCC1)C(NC(=O)c1ccc(C(F)(F)F)cc1)c1ccc(-c2ccccc2)cc1 (stereo unspecified)
 : 1.8	.	.	.	-15.0	3039	.
CCOc1ccc(N(CCC#N)S(=O)(=O)c2ccc(OC)cc2)cc1
 : -6.6	2.9	-1.3	2.5	-14.3	20566*	10.3
CN(C)CCCN(C(=O)c1nc2ccccc2s1)c1nc2ccc(F)cc2s1
 : -10.0	2.7	0.2	0.9	-24.5	5548	-0.5
O=S(=O)(NCCC1=CCCCC1)c1ccc(Br)cc1
 : -1.7	11.1	7.3	-0.8	-9.5	5588	-5.0
Nn1c(SCC(=O)Nc2ccc3c(c2)CCC3)nnc1C1CC1
 : .	0.9	13.0	1.0	-14.9	3485	0.6
CCCNC(=O)Cn1c(=O)oc2cc(S(=O)(=O)N3CCCC3)ccc21
 : -1.1	1.3	2.4	-0.2	-31.2	5776	-1.7
S=C(Nc1ccccc1)N1CCn2cccc2C1c1cccnc1 (stereo unspecified)
 : 9.8	-16.0	-5.9	-1.0	-6.2	2664	0.3
O=C(CCc1c[nH]c2ccccc12)NCCc1ccc(O)cc1
 : 2.2	5.9	8.5	-0.8	-52.5	3926	5.3
Cc1[nH]nc(-c2ccc(OCc3cnn(-c4ccccc4)c3)cc2O)c1Oc1ccccc1F
 : 6.9	.	.	1.7	2.9	3823	-5.9
Cn1cc(Cl)c(C(=O)Nc2nccs2)n1
 : -4.9	-2.7	-7.8	2.7	-21.8	4372	5.3

The results go on.
The line under a structure holds: BJeLR lethal	Mtb hypoxia rep	Mtb hypoxia rep growth	RN4220 kill	PrP 5UTR inh	Bead autofluor	ugtP null kill
COc1ccccc1N1CC(C(=O)Nc2nnc(SCC(=O)N3CCCC3)s2)CC1=O (stereo unspecified)
 : -0.8	-4.3	-9.2	2.5	5.9	4841	3.9
CN(CC(=O)Nc1ccccc1Cl)C(=O)COC(=O)c1nc(Cl)ccc1Cl
 : 7.5	4.3	7.9	0.4	-4.4	5531	-0.2
O=C(CN1CCN(c2ncc(C(F)(F)F)cc2Cl)CC1)NC(=O)NCc1ccccc1
 : 0.1	8.4	5.2	4.2	-6.1	8338	2.6
CSCCC(NC(=O)c1ccco1)C(=O)NC1CCCCCC1 (stereo unspecified)
 : -21.0	1.9	4.4	-0.7	-12.2	5548	3.0
O=C1C2C(C(=O)N1CCN1CCN(Cc3ccc([N+](=O)[O-])cc3)CC1)[C@H]1C=C[C@@H]2C1 (stereo partly specified)
 : 2.7	6.2	-0.5	2.3	-11.1	3283	8.7
C/C(CC(c1ccccc1)c1c(O)c2ccccc2oc1=O)=N\NC(N)=S (stereo unspecified)
 : 0.0	.	.	.	-5.6	2093	.
CNC(=O)CCSc1ccc(C)cc1
 : 3.8	1.5	7.2	4.4	-11.5	5221	4.3
N=C1SCC(=O)N1c1nc(-c2ccccc2)cs1
 : 11.6	6.4	9.3	0.9	-64.5	11475	-6.0
CC1CCCN(CCCNS(=O)(=O)c2ccc3c(c2)CCN3C(=O)C2CC2)C1 (stereo unspecified)
 : -1.4	8.1	-0.8	-0.1	-21.9	5708	2.0
Nc1nonc1C(=O)NCCN=Cc1cc(Cc2ccccc2)cc(Br)c1O
 : 0.7	4.4	-0.5	-8.5	-21.0	17444*	48.9
COc1ccccc1NC(=O)C1CCCN(S(=O)(=O)c2ccccc2)C1 (stereo unspecified)
 : -1.4	0.8	-1.9	-1.3	-10.0	4784	6.7
C#Cc1ccc([C@H]2C=C(C(=O)O)O[C@@H](OCCCCO)C2)cc1
 : 0.5	.	.	.	-14.2	3612	.
CCN1CCCC1CNC(=O)c1ccc(Sc2ccccc2Cl)c([N+](=O)[O-])c1 (stereo unspecified)
 : -2.8	14.2	4.3	10.7	-9.9	4367	-0.9
Cc1ccc(NC(=S)N(CCN(C)C)Cc2cc3cccc(C)c3[nH]c2=O)cc1
 : 6.2	7.0	1.5	0.8	-12.7	8155	11.9
CCOc1nc(NCCN2CCOCC2)nc(Nc2ccc([N+](=O)[O-])cc2)n1
 : 7.3	6.6	2.7	5.6	-11.0	2543	-0.7

Remaining list, next part
The line under a structure holds: BJeLR lethal	Mtb hypoxia rep	Mtb hypoxia rep growth	RN4220 kill	PrP 5UTR inh	Bead autofluor	ugtP null kill
CC(=O)Nc1ccc(S(=O)(=O)Nc2cccc(-c3cn4c(n3)SCC4)c2)cc1
 : -0.5	-4.1	-15.7	2.5	-16.3	2593	9.3
Cc1ccc(-c2c[nH]c(=S)n2-c2ccccc2)cc1
 : 4.2	-5.5	-3.4	5.6	-16.5	3302	10.1
Cc1ccc(NC(=O)CSc2nnc(NC(=O)C3CC3)s2)cc1C
 : -13.9	-8.0	-0.8	6.9	-21.0	5979	14.7
O=c1c2[nH]c3ccccc3c2ncn1Cc1ccncc1
 : -1.5	1.0	9.7	4.1	-13.5	3974	-3.4
CC12CN(C(=O)c3ccc([N+](=O)[O-])cc3)CC(C)(CN(C(=O)c3ccc([N+](=O)[O-])cc3)C1)C2=O
 : -0.9	5.7	4.0	3.2	.	.	8.4
CCOc1ccc(S(=O)(=O)N(CC(=O)NCC2CCCO2)c2ccc(F)cc2)cc1 (stereo unspecified)
 : 0.0	-9.7	-10.3	1.4	-9.7	3811	3.1
CC/C(C)=N/Nc1ccc(S(=O)(=O)N2CCCC2)cc1[N+](=O)[O-]
 : -0.7	.	.	.	-9.7	7929	.
O=C(Nc1nnc(C2CCCC2)s1)C1CCC1
 : -2.7	.	.	5.4	-13.3	3363	1.4
COc1cnn(-c2cccc(C(F)(F)F)c2)c(=O)c1Cl
 : -12.0	6.3	0.0	4.5	.	4290	2.4
O=C1ON=C(c2ccccc2)/C1=C/c1ccccc1
 : -0.4	-0.2	6.5	-2.0	-6.0	3719	-2.0
COc1ccc(NC2=CC(c3ccccc3)N(c3ccc(OC)cc3)C2=O)cc1 (stereo unspecified)
 : 1.7	5.5	-10.2	5.7	.	6451	8.3
Cc1cccc(C)c1NC(=O)c1cccc(C(=O)Nc2c(C)cccc2C)n1
 : -11.8	14.8	6.9	1.7	9.2	3882	-4.0
C=CC1=C2C=C(C3CC3)N(C3CC3)C=C2C(=O)C(C)(OC(=O)c2ccco2)C1=O (stereo unspecified)
 : -4.4	10.2	8.2	8.3	6.1	3909	-1.2

Source: PubChem BioAssay (several laboratories)
